From PubChem BioAssay
Beta apoptosis – inhibitors of cytokine-induced beta cell apoptosis, primary screen, luminescence; AID 435005, 2010; 300,000 tested, 0.8% active; protection from apoptosis, % (concentration not given with the values); INS-1E cytokine-induced death, ATP luminescence, 48 h; percent of positive-control rescue, neutral wells zero;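 active means all replicates at 75% or more, or half of them and the mean; inconclusive means half reach 75% but not the mean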;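 further: 0% = cytokine-treated negative control wells and 100% = positive control rescue; higher means more ATP so stronger rescue from cytokine killing; wells of about 40 µL received 100 nL stock; the first replicate is given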
Beta2AR agonist – beta2AR agonists driving receptor internalization, primary screen, cell-based, FAP fluorogen, flow cytometry. Beta-2 adrenergic receptor (Homo sapiens), P07550. Am2.2-beta2AR cells; reference of the scale not given here. response, % (test concentration not listed). 340,000 tested, 0.43% active. AID 504454, 2011;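 active means response above a set limit, near 3 SD of response in nonfluorescent compounds, cut at about 42% in these data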;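 further: stock transfer was 100 nL into about 11 µL; a reference agonist was the positive control; negative values mostly stem from fluorescent compounds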
Target sequence (P07550 whole entry, looked up): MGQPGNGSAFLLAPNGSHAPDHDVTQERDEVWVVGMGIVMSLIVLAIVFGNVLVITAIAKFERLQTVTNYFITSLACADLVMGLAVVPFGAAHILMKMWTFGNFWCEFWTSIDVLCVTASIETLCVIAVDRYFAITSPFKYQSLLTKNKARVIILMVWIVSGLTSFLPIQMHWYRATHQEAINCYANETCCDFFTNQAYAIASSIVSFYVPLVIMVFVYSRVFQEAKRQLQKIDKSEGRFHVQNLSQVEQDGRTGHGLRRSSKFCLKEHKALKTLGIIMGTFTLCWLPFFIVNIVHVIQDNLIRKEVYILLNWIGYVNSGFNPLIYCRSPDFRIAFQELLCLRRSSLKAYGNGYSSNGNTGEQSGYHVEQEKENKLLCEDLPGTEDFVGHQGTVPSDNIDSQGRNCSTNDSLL
T cruzi inh – inhibitors of intracellular T. cruzi growth, primary screen, luminescence, NIH3T3 host cells; T. cruzi beta-gal in NIH3T3, 90 h; inhibition, % (no concentration beside the values); 300,000 tested, 1.4% active;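 active means mean inhibition across valid replicates above about 55%, limit read from the data; inconclusive means mean below that limit but half or more replicates reach it; inactive means mean below it, under half of replicates reach it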;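 further: signal also drops with host cell toxicity which is not excluded here; 0% = plate median of DMSO wells and 100% = zero luminescence signal; higher percent means less beta-gal luminescence so fewer parasites; stock transfer was 50 nL into about 50 µL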
Ecoli rRNA inh – reduced GFP signal of wild-type E. coli, primary screen, bacterial rRNA inhibitor project, GFP/RFP fluorescence, OD600, single point | E. coli WT GFP vs humanized-ribosome RFP mutants, 24 h; hits give low values; DMSO median 0, no signal -100 | GFP signal change (wild-type ribosome), % (test concentration not listed) | 350,000 tested, 1.6% active;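 active means significant combined selectivity score with lowered wild-type GFP, culture density cut under 30%, mutant RFP and density less affected; inactive means any of these conditions unmet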; further: one replicate is shown; some compounds called inactive have numbers as strong as hits
ALR H2O2 inh – inhibitors of human ALR sulfhydryl oxidase, primary screen, biochemical, H2O2 detection, HRP-luminol luminescence, single point | FAD-linked sulfhydryl oxidase ALR (Homo sapiens), P55789 | purified ALR, DTT oxidation | inhibition, % (test concentration not listed) | 290,000 tested, 3.8% active | AID 485317, 2010;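 active means mean and each replicate at 75% or more; inconclusive means only one of the two met; inactive means neither met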;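 further: stock transfer was 7.5 nL into about 7.5 µL; 0% = neutral wells and 100% = wells with inactivated enzyme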
Target sequence (P55789 whole entry, looked up): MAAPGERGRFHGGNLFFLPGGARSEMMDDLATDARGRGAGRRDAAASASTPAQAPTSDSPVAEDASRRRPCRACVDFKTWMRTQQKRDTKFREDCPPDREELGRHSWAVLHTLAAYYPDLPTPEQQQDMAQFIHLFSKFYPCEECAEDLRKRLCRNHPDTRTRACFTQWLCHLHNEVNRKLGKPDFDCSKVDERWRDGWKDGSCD
Calb FLC – C. albicans growth inhibition with fluconazole, primary screen, CaCi-2 strain, Alamar Blue fluorescence; C. albicans CaCi-2 (fluconazole-resistant clinical isolate) + fluconazole, 48 h; growth inhibition, % (test concentration not listed); 300,000 tested, 0.57% active; AID 1979, 2009;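 active means most replicates above 75%; inconclusive means exactly half above 75%; inactive means most below 75%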;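 further: all wells also contain fluconazole at 8 µg/ml as a sub-toxic cotreatment; 0% = median of DMSO wells and 100% = median of geldanamycin control wells; wells of about 8 µL received 7.5 nL stock; the first replicate is given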
LANA-H2B inh – blockers of LANA interaction with H2A/H2B – biochemical, FP readout, HTS, primary screen; 320,000 tested, 0.6% active; inhibition, % (no concentration beside the values); Protein LANA1 (Human herpesvirus 8 type P (isolate GK18)), Q9QR71; cell-free LANA-H2A/H2B peptide, fluorescence polarization; in the data active means inhibition mostly above about 10%, no sharp cut-off; inactive means mostly below about 6.7%;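 further: stock transfer was 7.5 nL into about 10 µL; 0% = median of vehicle wells and 100% = median of positive control wells; one replicate is shown; the record names a cut of 25% in any replicate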
Bfl-1 A1 inh – caspase 3/7 activation in MEF A1-2A-BIM cells, primary screen, A1 inhibitor project, cell-based, luminescence, HTS; Caspase-Glo 3/7 luminescence, 3 h; percent of clofoctol response, vehicle zero; caspase activation, % (concentration not given with the values); 330,000 tested, 0.066% active;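 active means over half of replicate activation scores above 10%, or exactly half above 10 with the replicate mean above 10; inconclusive means replicate mean below 10 yet half the replicates above 10; inactive means over half of replicates below 10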;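 further: wells of about 30 µL received 50 nL stock; many hits fall short of the cut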
Ecoli rRNA inh OD600 – second read-out of Ecoli rRNA inh, no call of its own (marks repeat the call); OD600 change, %; measured here: OD600 growth;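 optical density of the mix in the first replicate; 0 = DMSO median and -100 = no signal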
Ecoli rRNA inh RFP – further read-out of Ecoli rRNA inh, marked with its call; RFP signal change, %; measured here: RFP humanized mutant strains;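 first replicate; 0 = DMSO median and -100 = no signal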
The depositor's hits bear a star; ? = inconclusive; / = not tested or not shown. Only part of the results is shown, so the mix of outcomes need not match the whole.

SMILES	Beta apoptosis	Beta2AR agonist	T cruzi inh	Ecoli rRNA inh	Ecoli rRNA inh OD600	Ecoli rRNA inh RFP	ALR H2O2 inh	Calb FLC	LANA-H2B inh	Bfl-1 A1 inh
CC1(C)Cc2c(c(-c3ccco3)[nH]c(=O)c2C#N)CO1	-7	6	-11	/	/	/	-28	-4	1.5	0.4
CCCN(C(=O)CSc1nc(C2CC2)n(-c2ccccc2)n1)C1CCS(=O)(=O)C1 (configuration not stated)	-1	-3	/	3	-2	-3.5	-4	/	-1.2	0.1
COc1ccc(CCNC(=O)C(=O)NCC2OCCN2S(=O)(=O)c2ccc3c(c2)OCCO3)cc1 (configuration not stated)	0	-1	12	-2	4	-0.4	-5	17	0.4	1.0
O=C(Cc1ccc(Br)cc1)Nc1ccccc1Sc1ccccc1	/	-2	13	/	/	/	-3	10	6.8	1.1
COc1cc(NC(=O)c2ccccc2)c(C)cc1NC(=O)CC(CC(=O)O)c1ccccc1 (configuration not stated)	/	6	-4	1	10	1.0	/	-6	7.1	0.9
O=C(NCC1CCCO1)c1ccc2c(=O)n(CC3CCCO3)c(=S)[nH]c2c1 (configuration not stated)	-3	-1	-8	/	/	/	/	18	-0.8	0.3
OCC1OC(n2nnc3ccccc32)C(O)C(O)C1O (configuration not stated)	-1	9	0	/	/	/	-4	19	2.0	0.3
CCc1cc(C(=O)NC(C)C2CCCO2)cs1 (configuration not stated)	-1	2	-9	2	1	4.6	-7	6	-5.0	-0.6
O=C(COC(=O)C1CCC(=O)N1)Nc1cc(Cl)ccc1Cl (configuration not stated)	-1	6	-4	13	5	-3.4	-5	-1	1.1	0.7
O=C(COC(=O)CN=C1NS(=O)(=O)c2ccccc21)Nc1ccccc1OC(F)F	-1	-2	-11	1	8	-0.5	-9	-2	-3.4	0.7
CC1(O)N(Cc2ccccc2)C(=O)OC12CCCCC2 (configuration not stated)	-8	2	-6	-9	-10	0.8	-3	5	-3.2	0.9
CCCCn1c(CN(C)Cc2ccccc2)nc2c1c(=O)n(C)c(=O)n2C	34	-6	0	/	/	/	-3	-18	-5.3	-0.2
COC(=O)c1ccc(-c2sc3nc(N4CCOCC4)c4c(c3c2N)CC(C)(C)OC4)o1	3	9	-5	/	/	/	-4	-1	-0.9	-0.9
Cc1cccc(NC(=O)c2ccco2)c1C	/	-6	-22	11	10	-0.2	5	4	1.1	0.3
Cc1ccc2cc(CCNC(=O)C(C)C)c(=O)[nH]c2c1C	-3	3	-7	11	11	0.5	-2	-6	-0.5	-0.2
COCCCN1C(=O)c2ccc(C(=O)NCc3ccco3)cc2C1=O	2	-5	-10	/	/	/	2	-15	-6.7	-0.4
CCOC(=O)c1c[nH][nH]c1=O	-8	-4	9	12	16	-0.1	4	7	-0.6	1.0
C=CCn1c(SCC#N)nc2c(c1=O)C(C)(C)Cc1ccccc1-2	-4	3	13	/	/	/	/	4	8.7	0.0
C/C(CC(=O)C(F)(F)F)=N\NC(=O)/C(C#N)=C/N(C)C	-1	0	/	10	9	2.8	/	-14	1.7	0.5
Cc1cc(C)cc(N(CC(=O)NC2CCCC2)C(=O)CCC(=O)Nc2cc(C)on2)c1	2	-10	4	0	13	5.4	/	-1	-0.2	-0.3
CCCc1nc(SCC(=O)Nc2nnc(SCC)s2)c2c(=O)n(C)c(=O)n(C)c2n1	29	6	-4	-5	9	-3.4	-22	-8	-2.8	0.9
Cc1c(N)cccc1N	2	13	/	2	7	-0.5	86*	/	123*	0.1
Cc1cccc(C(=O)NNC(=O)C23CC4CC(CC(C4)C2)C3)c1O	10	6	-3	2	-30	-4.9	1	-20	-4.4	-0.2
CC(=O)c1c(C)nc(-c2ccc(OCC(=O)Nc3ccc(F)cc3)cc2)n1O	-4	-19	5	-35	-29	-10	0	-3	-1.6	0.7
C#Cc1ccc(CN2CCN(CCc3ccccc3)C(CCO)C2)cc1 (configuration not stated)	-1	-5	45	2	3	2.1	/	-13	-2.6	1.5
Cc1[nH]c2ccccc2c1C(=O)COC(=O)c1ccc([N+](=O)[O-])s1	18	5	74*	-56	-74	-36	-42	18	1.9	?
CC1CN(C(=O)c2ccc(COCC(F)(F)F)o2)CC(C)O1 (configuration not stated)	-4	2	-17	/	/	/	-3	-5	1.1	1.1
Cc1cccc(OC(=O)Cn2c(C(F)(F)F)nc3ccccc32)c1	-5	3	-4	/	/	/	18	3	-1.6	0.4
COc1ccc(NC(=O)O/N=C/c2ccc(Br)cc2)cc1	-7	-6	-7	0	10	3.8	-6	2	1.6	0.9
CS(=O)(=O)c1nc(-c2ccc(Br)cc2)n[nH]1	-4	4	-1	3	0	3.8	1	13	6.3	-0.1
CCCN(CCC)CCCNC(=O)c1cc2c(=O)n(C)c3ccccc3c2n1C	6	2	18	-10	1	0.1	/	6	0.6	0.2
Cc1ccc(NC(=O)CSc2nnc(CNC(=O)c3cccs3)o2)c(C)c1	-7	9	0	2	5	2.2	-8	1	1.7	-0.1
CCOc1ccc(N2CC(C(=O)Nc3ccc(S(=O)(=O)Nc4nccs4)cc3)CC2=O)cc1 (configuration not stated)	-4	1	-1	1	7	0.6	3	-4	3.8	0.9
O=C1C=C(c2ccnc3cc(Cl)ccc23)C[C@@H](c2ccc3c(c2)OCO3)C1	67	-10	/	-9	-11	2.9	0	/	0.1	-0.6
COc1ccc(CCN2C(=O)CC(NNC(=O)c3cccc(O)c3)C2=O)cc1 (configuration not stated)	-3	3	-3	/	/	/	95*	-10	2.0	0.2
CCn1c2ccccc2c2cc(NC(=O)COC(=O)c3ccccc3Br)ccc21	2	1	20	-9	-1	2.7	-2	-10	0.0	0.3
CC1CCCCN1C(=O)c1ccc(S(=O)(=O)N2CCCCC2C)cc1 (configuration not stated)	8	3	-1	/	/	/	-1	5	2.7	-1.0
CN(C)C(=O)N1CCC(C(=O)N2CCCC(C(=O)c3cccc4ccccc34)C2)CC1 (configuration not stated)	-2	4	19	-9	-11	3.0	-3	-15	6.1	0.3
O=C(Nc1ccccn1)C1CCN(C(=O)Nc2ccccc2)CC1	-1	9	-7	-2	4	0.2	-7	3	-4.9	0.5
Cn1c(=O)[nH]c(=O)c2c1nc(SCCN1CCCCC1)n2CCCc1ccccc1	3	-6	/	/	/	/	6	/	-1.2	-1.5
Cc1cccn2c(=O)c3cc(C(=O)NCCc4ccccc4)c(=N)n(CCCn4ccnc4)c3nc12	-4	34	30	/	/	/	0	4	5.7	-0.6
COc1ccc(S(=O)(=O)N2CCC(C(=O)N[C@H](C(=O)NCc3ccncc3)C(C)C)CC2)cc1	-1	-3	2	0	8	0.1	-5	4	1.4	1.1
CCCn1cnnc1CNC(=O)C1CCC(=O)N(CCc2ccc(OC)cc2)C1 (configuration not stated)	-5	2	-9	14	9	-9.0	-1	3	-3.2	0.7
CC(=O)NCCc1nc2cc(NS(=O)(=O)c3ccccc3)ccc2n1C	5	2	-10	-2	8	3.0	0	4	4.1	-0.4
O=C(Nc1ccc2nc(N3CCOCC3)sc2c1)c1ccc(F)cc1	5	-1	/	-5	0	-1.6	-10	/	0.7	-0.5
CN(CCN(C)C(=O)c1[nH]cnc1C(=O)Nc1ccccc1)C(=O)c1[nH]cnc1C(=O)Nc1ccccc1	-1	-2	/	7	16	-4.3	-4	/	-0.7	-0.8
Nc1nnc(-c2cccc([N+](=O)[O-])c2)s1	-4	-6	-4	6	8	-3.9	-3	0	2.4	-0.1
O=C(CN(Cc1cccs1)C(=O)CNS(=O)(=O)c1ccc(Cl)cc1)NCC1CCCO1 (configuration not stated)	-5	1	0	7	0	0.1	3	-6	-1.9	0.2
CCOC(=O)c1cnn(-c2cc(Oc3ccccc3)ncn2)c1N	10	-3	7	/	/	/	-10	-2	1.3	0.1
O=S(=O)(c1ccc2c(c1)OCCO2)N1CCCN(S(=O)(=O)c2c(F)cccc2F)CC1	-2	-2	/	-15	-11	1.8	-1	/	-0.2	-0.9
CC(=O)N1CCN(C2=NC(=O)/C(=C/c3ccc(OS(=O)(=O)c4ccccc4)cc3)S2)CC1	2	3	6	6	-1	-2.2	-12	-1	-2.5	0.4
Cc1cccc(C(=O)Nc2cc(C)ccc2NC(=O)COc2ccccc2)c1	0	4	4	/	/	/	-8	4	4.1	-0.1
O=C1CC(Cc2ccc(Cl)cc2)C(=O)N1c1ccccn1 (configuration not stated)	/	13	-5	/	/	/	2	-2	-5.6	0.2
O=C(COC(=O)/C=C/c1ccc(C(F)(F)F)cc1)NCCC1=CCCCC1	/	-4	-5	6	9	0.1	-9	-9	-4.2	0.0

7 of these compounds in a different format:
Compound | Beta apoptosis | Beta2AR agonist | T cruzi inh | Ecoli rRNA inh | Ecoli rRNA inh OD600 | Ecoli rRNA inh RFP | ALR H2O2 inh | Calb FLC | LANA-H2B inh | Bfl-1 A1 inh
C/C(CC(=O)C(F)(F)F)=N\NC(=O)/C(C#N)=C/N(C)C | -1 | 0 | / | 10 | 9 | 2.8 | / | -14 | 1.7 | 0.5
Cc1cccn2c(=O)c3cc(C(=O)NCCc4ccccc4)c(=N)n(CCCn4ccnc4)c3nc12 | -4 | 34 | 30 | / | / | / | 0 | 4 | 5.7 | -0.6
Cc1cccc(C(=O)NNC(=O)C23CC4CC(CC(C4)C2)C3)c1O | 10 | 6 | -3 | 2 | -30 | -4.9 | 1 | -20 | -4.4 | -0.2
Cc1ccc(NC(=O)CSc2nnc(CNC(=O)c3cccs3)o2)c(C)c1 | -7 | 9 | 0 | 2 | 5 | 2.2 | -8 | 1 | 1.7 | -0.1
OCC1OC(n2nnc3ccccc32)C(O)C(O)C1O (configuration not stated) | -1 | 9 | 0 | / | / | / | -4 | 19 | 2.0 | 0.3
CC(=O)NCCc1nc2cc(NS(=O)(=O)c3ccccc3)ccc2n1C | 5 | 2 | -10 | -2 | 8 | 3.0 | 0 | 4 | 4.1 | -0.4
Cc1cccc(OC(=O)Cn2c(C(F)(F)F)nc3ccccc32)c1 | -5 | 3 | -4 | / | / | / | 18 | 3 | -1.6 | 0.4
